# Beta2AR agonist = beta2AR agonists driving receptor internalization, primary screen, cell-based, FAP fluorogen, flow cytometry; AID 504454, 2011; response, % (concentration not given with the values); 0.43% of 340,000 active; Beta-2 adrenergic receptor (Homo sapiens), P07550; Am2.2-beta2AR cells; reference of the scale not given here;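 active = response above a set limit, near 3 SD of response in nonfluorescent compounds, cut at about 42% in these data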;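 also: stock transfer was 100 nL into about 11 µL; a reference agonist was the positive control; negative values mostly stem from fluorescent compounds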
# Target sequence (P07550 whole entry, looked up): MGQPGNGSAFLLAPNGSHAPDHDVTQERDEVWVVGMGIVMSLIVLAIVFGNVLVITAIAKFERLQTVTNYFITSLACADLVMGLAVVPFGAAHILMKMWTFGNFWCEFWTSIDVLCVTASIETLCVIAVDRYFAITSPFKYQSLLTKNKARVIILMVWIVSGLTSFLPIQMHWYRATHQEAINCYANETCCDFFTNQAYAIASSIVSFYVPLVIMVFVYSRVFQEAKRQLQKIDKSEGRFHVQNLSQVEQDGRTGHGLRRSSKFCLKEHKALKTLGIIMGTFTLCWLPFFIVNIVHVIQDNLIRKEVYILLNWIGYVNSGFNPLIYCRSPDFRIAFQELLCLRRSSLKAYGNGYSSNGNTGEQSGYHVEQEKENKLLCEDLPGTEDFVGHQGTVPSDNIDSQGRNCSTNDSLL
# Vif A3G = inhibitors of Vif binding to APOBEC3G peptide, primary screen, biochemical, TR-FRET, GST-Vif 1-94, biotin-A3G peptide, dose response retest (AID 1117319) | TR-FRET GST-Vif / biotin-A3G peptide binding; higher % means a stronger effect; test concentration not given here; strong numbers were not always called active | 0.57% of 260,000 active | one-dose inhibition, %; IC50 in µM for titrated hits | Virion infectivity factor (Human immunodeficiency virus type 1 group M subtype B (isolate …;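 active = above the screen mean plus three standard deviations and confirmed in dose response; inconclusive = results disagree or hit not tested in dose response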;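 also: Vif residues 1-94 fused to GST binding biotinylated APOBEC3G peptide 110-148; 0% = full assay without inhibitor and 100% = GST in place of GST-Vif; retest series ran down from 100 µM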
# LANA-H2B inh = blockers of LANA interaction with H2A/H2B – biochemical, FP readout, HTS, primary screen; Protein LANA1 (Human herpesvirus 8 type P (isolate GK18)), Q9QR71; cell-free LANA-H2A/H2B peptide, fluorescence polarization; inhibition, % (no concentration beside the values); 0.6% of 320,000 active; AID 2629, 2010; in the data active = inhibition mostly above about 10%, no sharp cut-off; inactive = mostly below about 6.7%;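 also: stock transfer was 7.5 nL into about 10 µL; 0% = median of vehicle wells and 100% = median of positive control wells; one replicate is shown; the record names a cut of 25% in any replicate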
# Calb FLC = C. albicans growth inhibition with fluconazole, primary screen, CaCi-2 strain, Alamar Blue fluorescence. C. albicans CaCi-2 (fluconazole-resistant clinical isolate) + fluconazole, 48 h. growth inhibition, % (no concentration beside the values). 0.57% of 300,000 active. AID 1979, 2009;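 active = most replicates above 75%; inconclusive = exactly half above 75%; inactive = most below 75%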;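 also: all wells also contain fluconazole at 8 µg/ml as a sub-toxic cotreatment; 0% = median of DMSO wells and 100% = median of geldanamycin control wells; wells of about 8 µL received 7.5 nL stock; the first replicate is given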
# ALR H2O2 inh = inhibitors of human ALR sulfhydryl oxidase, primary screen, biochemical, H2O2 detection, HRP-luminol luminescence, single point; purified ALR, DTT oxidation; AID 485317, 2010; 3.8% of 290,000 active; FAD-linked sulfhydryl oxidase ALR (Homo sapiens), P55789; inhibition, % (no concentration beside the values);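 active = mean and each replicate at 75% or more; inconclusive = only one of the two met; inactive = neither met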;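 also: stock transfer was 7.5 nL into about 7.5 µL; 0% = neutral wells and 100% = wells with inactivated enzyme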
# Target sequence (P55789 whole entry, looked up): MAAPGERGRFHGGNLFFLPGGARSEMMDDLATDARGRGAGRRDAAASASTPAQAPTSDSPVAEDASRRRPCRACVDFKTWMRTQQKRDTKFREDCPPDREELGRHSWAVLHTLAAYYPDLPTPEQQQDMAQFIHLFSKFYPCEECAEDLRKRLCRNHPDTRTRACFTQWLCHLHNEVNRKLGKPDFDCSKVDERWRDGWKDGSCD
# HNF4A DNA FP = change in binding of human HNF4A to DNA, primary screen, biochemical, fluorescence polarization, FITC-DNA; 1 h; activity change, % at 10 µM; 0.3% of 360,000 active; AID 1224865, 2016; in the data active = activity change above about 30%, passing the limit was not always enough;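 also: controls were the assay level and a saturating level of protein; the project sought stronger binding though the title names inhibitors; some compounds called inactive have numbers as strong as hits; positive values seem to mean higher polarization but the record does not say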
# Target sequence (P41235 whole entry, looked up): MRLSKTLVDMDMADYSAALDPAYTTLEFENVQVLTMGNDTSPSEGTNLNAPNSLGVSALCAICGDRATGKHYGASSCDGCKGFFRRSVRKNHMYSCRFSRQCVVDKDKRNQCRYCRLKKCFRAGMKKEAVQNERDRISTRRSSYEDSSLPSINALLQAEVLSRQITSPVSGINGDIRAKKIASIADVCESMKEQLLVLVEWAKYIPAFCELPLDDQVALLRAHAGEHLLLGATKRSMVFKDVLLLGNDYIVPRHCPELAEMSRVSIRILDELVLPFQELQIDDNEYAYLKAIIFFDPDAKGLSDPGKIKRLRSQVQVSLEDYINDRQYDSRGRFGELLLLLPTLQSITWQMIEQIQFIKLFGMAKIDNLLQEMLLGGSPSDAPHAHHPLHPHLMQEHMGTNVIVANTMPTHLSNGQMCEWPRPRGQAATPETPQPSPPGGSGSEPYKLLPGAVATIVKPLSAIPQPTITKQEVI
# RanGTP-Imp inh = inhibitors of RanGTP-importin-beta interaction, primary screen, biochemical, FRET, CFP-Ran, YFP-importin-beta, homogeneous. 1.1% of 300,000 active. cell-free CFP-Ran/YFP-importin-beta FRET ratio. inhibition, % (test concentration not listed). AID 2216, 2009. Ran GTPase (GTP-bound) - importin-beta complex;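 active = most replicates above 15%; inconclusive = exactly half above 15%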;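 also: 0% = DMSO wells and 100% = Ran loaded with GDP instead of GTP; wells of about 40 µL received 100 nL stock; the first replicate is given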
# Numbers without * were called inactive; u = inconclusive; x = no result given.
# Results follow in this order: Beta2AR agonist	Vif A3G	LANA-H2B inh	Calb FLC	ALR H2O2 inh	HNF4A DNA FP	RanGTP-Imp inh
O=C(O)C1C2CC3OC(=O)C1C3C2 (centres undefined)
  9	0%	x	x	x	3.1	x
COc1cc(SC)ccc1C(=O)NCC1CCCO1 (centres undefined)
  5	-1%	4.3	5	-4	1.7	1.1
Cc1cccc(CSCCNC(=S)Nc2ccccc2)c1
  12	-10%	-0.8	-46	-2	0.4	-0.8
Cc1ccc(S(=O)(=O)CCC(=O)OCC(=O)N(C)CC(=O)Nc2ccc(F)cc2)cc1
  7	6%	1.7	1	5	0.9	-1.2
Cc1ccc(C(C)C)c(OCC(=O)Nn2c(C)nc3ccccc3c2=O)c1
  4	-2%	-4.4	-10	2	2.4	u
Cc1ccc(NC(=O)c2cc(NC(=O)c3ccco3)ccc2N2CCOCC2)cc1
  -6	-2%	-2.3	23	12	0.5	-1.4
CNc1ncnc(Sc2nc(N)nc3nc[nH]c23)c1[N+](=O)[O-]
  -1	16%	x	x	x	-0.2	x
CC(C)NC(=O)N(C)C[C@H]1Oc2ccc(NS(=O)(=O)c3ccccc3)cc2C(=O)N([C@H](C)CO)C[C@H]1C
  -5	x	-0.1	x	-3	-1.9	x
COc1cc(C(c2sc3ncnn3c2O)N2CCN(c3ccccc3F)CC2)cc(OC)c1OC (centres undefined)
  0	-6%	-2.2	-3	3	-3.3	1.0
CCN1CCCC1CNC(=O)c1cc(OC)c(OC)c(OC)c1 (centres undefined)
  -3	2%	-4.2	0	x	-5.6	4.9
CC(C)N(C1=CC(=O)OC12CCCCC2)C(C)C
  -5	-6%	4.5	4	-5	1.8	-1.2
CCOc1ccc(-c2nnn(CC(=O)NCc3cccs3)n2)cc1
  -10	28%	1.0	14	3	0.9	2.8
Cc1ccc([N+](=O)[O-])cc1S(=O)(=O)NCc1cccnc1
  -2	21%	3.9	-3	-10	1.4	-0.4
O=S(=O)(Nc1c(F)cccc1F)c1ccc2c(c1)OCCO2
  9	x	-2.6	3	-2	2.8	6.3
COc1ccccc1N1CCN(Cc2cc3c(cc2[N+](=O)[O-])OCO3)CC1
  4	4%	-4.5	-7	x	0.9	-3.2
O=C(COC(=O)c1ccc([N+](=O)[O-])o1)Nc1ccc2c(c1)OCO2
  1	5%	3.3	x	-11	-1.1	x
O=C(CCSc1nnc(-c2ccco2)o1)Nc1ccc(Cl)cc1
  -4	31%	-2.0	34	-4	-2.0	u
CC(C)CNC(=O)c1ccccc1Oc1ccccc1
  -2	-9%	4.0	6	-4	-1.0	-2.7
CCOc1ccc(-c2ccc(C=O)o2)c([N+](=O)[O-])c1
  10	6%	2.1	19	-5	0.9	3.0
COc1ccc(C2(CNC(=O)C(=O)Nc3ccc(C)cc3)CCOCC2)cc1
  -3	-9%	-0.3	-5	2	1.1	-4.5
Cc1ccc(C(C)C)c(OCCCN2C(=O)NC(C)(C)C2=O)c1
  11	4%	-2.6	-11	-2	-1.8	2.1
COCCNc1ccnc2c(Cl)cccc12
  -1	x	-3.9	-7	-14	-0.1	0.1
Cc1cc(Cl)ccc1C(=O)C1CCCN(C(=O)c2ccoc2)C1 (centres undefined)
  -5	-2%	-0.2	7	19	-1.3	2.8
c1ccc(-c2nnc(-c3ccco3)o2)cc1
  0	-6%	-5.3	-5	6	3.0	8.5
Cc1ccc2c(c1)C1CN(C)CCC1N2S(=O)(=O)c1cccc(F)c1 (centres undefined)
  7	x	0.2	x	22	-4.3	x
C/C(CC(=O)Nc1ccc2c(c1)OCCO2)=N\NC(=O)COc1ccc(C)cc1Br
  8	x	-1.1	1	6	-3.4	-3.6
CN(CCc1ccccn1)C(=O)CC1C(=O)NCCN1Cc1cccc(F)c1 (centres undefined)
  -1	x	0.6	-5	-5	-1.8	-0.1
C=CC(=O)N(CCC)C(c1ccccc1)c1ccccc1OC (centres undefined)
  -2	x	-2.3	7	-4	3.6	-2.4
CCOC(=O)c1c(-c2ccccc2)oc2cc(CN(C)C)c(O)c(CN(C)C)c12
  0	0%	49*	-3	-1	-13	0.4
COc1ccc(-c2ccccc2)cc1NC(=O)c1cccs1
  6	x	-8.8	9	4	1.9	0.0

# Additional structures:
# Results follow in this order: Beta2AR agonist	Vif A3G	LANA-H2B inh	Calb FLC	ALR H2O2 inh	HNF4A DNA FP	RanGTP-Imp inh
COC(=O)c1ccccc1NC(=S)N(Cc1ccc2c(c1)OCO2)Cc1cc2cc(OC)ccc2[nH]c1=O
  2	15%	1.8	-8	0	-0.1	-1.0
CSc1nc2ccc(S(=O)(=O)N3CCOCC3)cc2s1
  -27	0%	1.5	44	25	0.9	-0.6
CCN(CC(=O)NCc1ccccn1)S(=O)(=O)c1ccc(OC)cc1
  2	x	0.6	-6	0	3.4	10
Cc1cc(C(F)(F)F)nc(SCc2ccc(C(=O)O)o2)n1
  0	19%	-2.0	9	x	-1.3	-3.1
CCOC(=O)N1CCN(C(=O)C(=O)c2cn(CC(=O)N3CCCCCC3)c3ccccc23)CC1
  3	x	-1.0	-1	-20	-0.6	5.7
O=C(Nc1ccccc1C(F)(F)F)c1cc(S(=O)(=O)N2CCC3(CC2)OCCO3)ccc1F
  -4	19%	-2.2	-16	-3	-0.5	-1.0
O=C1CCCN2N=C(SCC(=O)Nc3ccc(OC(F)(F)F)cc3)SC2=N1
  3	6%	-3.9	-3	2	-2.3	-1.2
O/N=C1/CCCSc2ccccc21
  0	24%	-0.3	-24	0	-0.8	1.7
O=C(/C=C/c1ccc2c(c1)OCO2)Nc1nncs1
  -6	-3%	-3.8	-1	x	0.0	2.3
Cc1ccc(C2=NN(C(=O)CCC(=O)O)C(c3ccc4c(c3)OCO4)C2)cc1 (centres undefined)
  3	u	-12	11	1	2.8	-2.4
COc1cc(NC(=O)Cn2nnc(-c3ccncc3)n2)cc(OC)c1
  0	-3%	-1.3	24	-7	3.9	6.5
CS(=O)(=O)c1ccc(C(=O)Nc2ccc(-c3nc4ccccc4[nH]3)cc2)cc1
  1	x	0.8	8	14	2.2	u
NC(=S)N=Nc1c(O)[nH]c2cc(F)c(F)cc12
  0	x	-4.9	8	-15	-0.8	-4.9
O=C(Nc1cc(S(=O)(=O)N2CCOCC2)ccc1N1CCOCC1)c1cn2ccccc2n1
  -9	u	-1.1	1	0	0.4	-0.8
COc1ccc(-c2cc(=O)[nH]c3ccccc23)cc1
  -5	-2%	13	x	x	4.8	x
CCN(CC)S(=O)(=O)c1ccc(N(C)C)c(NC(=O)C2CCCC2)c1
  -9	-7%	4.8	-2	-4	4.3	-1.6
COc1ccc(C(=O)Nc2nnc(C3=COCCO3)o2)cc1
  6	-18%	0.6	8	-1	-0.3	4.8
CCC(C(=O)NCc1ccc(F)cc1)N(Cc1cccs1)C(=O)c1snc(C(N)=O)c1N (centres undefined)
  11	4%	-2.9	-7	x	-1.0	3.8
Cc1cc(C(=O)Nc2ccccc2N2CCOCC2)ccc1[N+](=O)[O-]
  -11	12%	8.3	-8	0	-3.8	2.3
O=C(CCc1nnc(Cc2cccc(C(F)(F)F)c2)o1)NC1CC1
  -1	1%	6.3	13	-1	0.0	0.5
CCOC(=O)N1CCN(C2CC(=O)N(c3ccc(Cl)c(Cl)c3)C2=O)CC1 (centres undefined)
  -4	3%	1.2	-10	x	-2.2	x
O=C(Cn1cnc2c(nnn2-c2ccc(F)cc2)c1=O)N1CCCc2ccccc21
  1	6%	9.5	-6	-4	-0.5	2.0
CN(C)S(=O)(=O)c1ccc(N2CCCC2)c(C(=O)Nc2ccccc2OC(F)F)c1
  -7	x	-3.3	-12	-11	-1.6	-2.1
CCCn1c(=O)c(C(=O)Nc2ncccc2C)c(O)c2ccccc21
  -9	x	0.3	-2	0	-1.0	-1.0
COc1cc(C(=O)Oc2ccccc2/C=N/NC(=O)c2ccc(Cl)cc2)cc(OC)c1OC
  4	-2%	-0.7	34	-2	1.4	-1.0
CCOc1ccccc1NC(=O)Nc1ccc(CC#N)cc1
  3	-1%	-2.9	-1	7	-3.5	-3.1
Cc1cccc(C)c1NC(=O)CSc1nnc(C)c(=O)[nH]1
  2	-1%	-4.0	9	-5	-0.1	2.2
CCOC(=O)c1[nH]c2ccc(OC)cc2c1NC(=S)N1CCN(c2cccc(C)c2C)CC1
  3	x	-1.4	15	11	1.2	-0.8
CCCn1c(N)c(N2CCCCC2)c(=O)n(CC(=O)Nc2ccc(C(C)=O)cc2)c1=O
  2	x	-0.9	x	50	-2.0	x
COc1ccc(C2(CNC(=O)c3ccccc3)CCCC2)cc1OC
  -2	x	-2.9	-11	-1	2.5	0.8

# More results follow:
# Results follow in this order: Beta2AR agonist	Vif A3G	LANA-H2B inh	Calb FLC	ALR H2O2 inh	HNF4A DNA FP	RanGTP-Imp inh
CC(=O)Nc1ccccc1Oc1ccccc1
  -2	2%	1.4	-10	x	0.1	u
CCC(C)c1ccc(NC(=O)c2cccs2)cc1 (centres undefined)
  8	-5%	2.3	16	13	-3.2	1.2
Cc1ccc(-n2nnnc2Sc2nc([N+](=O)[O-])nn2C)c(C)c1
  5	-2%	-0.7	43	-39	3.8	2.4
COCP(=O)(c1ccccc1)c1ccccc1
  -2	0%	1.8	-5	-2	2.9	-1.5
O=CN1Cc2ccccc2-c2ccccc2C1
  -4	x	3.2	0	-5	-2.5	1.1
Cc1cccc(NC(=O)CN2C(=O)CSC2=O)c1
  6	3%	2.9	-10	x	-1.3	-0.4
COc1ccc(S(=O)(=O)N/N=C\c2ccc3c(c2)OCO3)cc1
  2	2%	-3.9	9	44	4.8	1.4
CC(C)(C)NC(=O)NC(=O)CN1CCCCCCC1
  -7	-3%	7.2	3	x	2.5	0.9
CS(=O)(=O)c1ccc(N2CCN(S(=O)(=O)c3cccs3)CC2)c([N+](=O)[O-])c1
  7	13%	9.4	x	-6	2.4	x
CCOc1ccc(CCNC(=O)C2CCN(c3nn4c(=O)cc(C)nc4s3)CC2)cc1
  -18	0%	-1.7	x	0	-0.8	x
CC1CCN(C(=O)C2CCC(CNS(=O)(=O)c3cccc4cccnc34)CC2)CC1 (centres undefined)
  14	-1%	-6.8	-3	-112	-0.4	-2.8
CCOC(=O)CCS(=O)(=O)c1ccc(-c2ccc(S(=O)(=O)CCC(=O)OCC)cc2)cc1
  4	u	-0.4	-10	-21	-2.4	-4.3
N=C(N)SCc1cccc2ccccc12
  10	-5%	6.8	-4	99*	-3.0	u
CC(=O)/C(=C/Nc1ccc(Oc2ccccc2)cc1)c1ccccc1
  -1	1%	0.3	-1	-9	-0.2	0.8
CC(=O)c1cccc(NC(=O)C2=CC(c3ccco3)=NS(=O)(=O)N2C)c1
  5	x	-1.7	0	4	3.9	3.3
CCCC(=O)N1c2ccccc2C(N(C(C)=O)c2ccccc2)CC1C (centres undefined)
  4	23%	-6.7	-5	1	-0.3	7.0
CCCCC(=O)OCCNC(=O)c1cc2ccccc2oc1=O
  -14	3%	5.4	x	3	0.0	-0.3
CC(Sc1nc2cc([N+](=O)[O-])ccc2n1-c1cccc(C(F)(F)F)c1)C(=O)NC(N)=O (centres undefined)
  5	x	1.6	-9	0	3.7	1.7
O=C(NC1CCN(Cc2ccccc2)CC1)c1cn(-c2ccccc2)nc1-c1cccnc1
  2	-2%	-1.5	5	-2	-0.8	7.1

# Assay outcomes as filed in PubChem BioAssay.
